HIV TAR-Tat: TAR RNA-Tat peptide displacers, HIV-1, primary screen, biochemical, FRET, FAM/TAMRA-labeled Tat; AID 1259389, 2018; HIV-1 TAR RNA, Tat peptide displacement FRET; active compounds read high; 0.6% of 100,000 active; z-score (test concentration not listed);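 also: score is relative to mean and SD of negative controls; some compounds called inactive have numbers as strong as hits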
CDC25B CDK2 inh: primary biochemical HTRF screen for blockers of M-phase inducer phosphatase 2 binding to CDK2/cyclin A; 0.72% of 94,000 active; z-score (concentration not given with the values); AID 1259370, 2018; HTRF CDC25B-CDK2/CyclinA binding, anti-His/anti-Flag; active compounds read high; P30305+P24941;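 also: score is relative to mean and SD of negative controls; strong numbers were not always called active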
An asterisk follows results filed as active; . = not tested or not shown.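 The calls were made as follows: active = z-score from 3 up in half or more of its runs; inactive = the rest.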 Rows were taken by chance; overall some 0.97% were active at least once.

SMILES	HIV TAR-Tat	CDC25B CDK2 inh
OCC(O)Cn1c(SCCOc2ccc(Cl)cc2)nc2ccccc21 (stereo not drawn)	1.1	0.27
CCN(CC)S(=O)(=O)c1ccc2c(c1)CC(C(=O)NC1CC1)N2C(C)=O (stereo not drawn)	1.1	.
COC(=O)CN1C(=O)CC(C)(C)Sc2ccccc21	.	-0.66
Cn1nc(C(=O)NCC2CCCO2)c2c1-c1ccccc1OC2 (stereo not drawn)	-0.11	-0.33
O=C(O)CC(c1ccccc1)N1C(=O)c2ccccc2C1=O (stereo not drawn)	.	-0.94
COc1ccc(-c2noc(-c3cccc(Cl)c3)n2)cc1	.	0.21
Cc1noc2ncnc(N3CC(C)CC(C)C3)c12 (stereo not drawn)	-0.35	.
CSc1nc(C)nc(N/C=C(\C#N)C(=O)C2CC2)n1	.	-1.4

(cont.)
SMILES	HIV TAR-Tat	CDC25B CDK2 inh
Cc1ccc(-c2c(NCC3CCCO3)c(=O)c2=O)cc1C (stereo not drawn)	2.1	.
O=c1[nH]c2cc3c(cc2c(=O)n1Cc1nc(-c2ccccc2)no1)OCO3	-0.04	.
CCCn1nc(-n2cnnc2)c(NS(=O)(=O)c2ccc(C)c(C)c2)c1C	2.3	-2
CCOC(=O)c1nc(NCc2cccnc2)c2c(C)noc2n1	0.18	.
Cc1ccc(-c2oc3ccc(C)cc3c(=O)c2O)cc1	0.33	-0.36
CCn1c2ccccc2c2cc(NC(=O)NCc3noc4ccccc34)ccc21	-0.69	.
CCNC(=O)c1oc2c(c1C)C1N=C(C)SC1CC2 (stereo not drawn)	1.8	.
O=C1CCCC2=C1C(c1cccnc1)n1nc(SCc3ccccc3)nc1N2 (stereo not drawn)	.	3

The results go on:
SMILES	HIV TAR-Tat	CDC25B CDK2 inh
CCOC(=O)Cn1c(=O)oc2cc(S(=O)(=O)N3CCc4ccccc4C3)ccc21	0.58	-0.15
Cc1ccc2oc(C(=O)NC3CCS(=O)(=O)C3)cc(=O)c2c1 (stereo not drawn)	-0.15	-2.2
O=C(c1ccco1)N1N=C(c2ccc(Cl)cc2)CC1(O)C(F)(F)F (stereo not drawn)	.	-2.2
CCOC(=O)C1CCN(C(=O)c2cccs2)CC1	2.5	-1.1
Cn1cnc([N+](=O)[O-])c1NC1Cc2ccccc2C1	.	-0.49
O=C(NCCc1cccs1)C1CCN(c2nc3ccccc3n3cccc23)CC1	0.72	.
Cc1ccc(OCC(=O)OCc2cc(=O)n3nc(C4CCCCC4)sc3n2)cc1C	-0.09	.
COC(=O)c1cnn(-c2ccc(C(=O)O)cc2)c1N	2	0.89

(more compounds)
SMILES	HIV TAR-Tat	CDC25B CDK2 inh
Cc1sc(NC(=O)c2ccc(C(C)(C)C)cc2)c(C#N)c1C	0.12	-1.3
CCN1CCN(S(=O)(=O)c2ccc3c(c2)CCCC(=O)N3)CC1	1.2	.
COc1cc(C(Nc2ccccn2)c2c(C)[nH]c3ccccc23)cc(OC)c1OC (stereo not drawn)	.	-2.7
O=C(OCc1cc(=O)n2nc(C3CCCCC3)sc2n1)c1ccccc1Cl	0.2	.
CCOC(=O)c1oc2ccc(S(=O)(=O)N3CCCC3c3ccc(F)cc3)cc2c1C (stereo not drawn)	2.1	-1.7
COc1cccc(-n2nnc3c(sc4nc(C)ccc43)c2=O)c1	2.4	-1.3
O=c1[nH]c2ncccc2c(=O)n1Cc1ccccc1	-0.28	-0.34
Cc1ccccc1NCC(O)Cn1c(C)c(C)c2ccccc21 (stereo not drawn)	.	-0.38

New compounds follow:
SMILES	HIV TAR-Tat	CDC25B CDK2 inh
CCCCN(C)c1ncnc2onc(-c3cc(F)cc(F)c3)c12	1.1	.
O=C(CCc1nnc2ccc(NCc3ccc(F)cc3)nn12)NCc1ccc2c(c1)OCO2	1.6	.
CCc1cc2c3c(c1)C(C)=CC(C)(C)N3C(=O)C2=O	0.42	-0.53
CCCCCOC(=O)CSc1nc(N)c2c3c(sc2n1)COC(C)(C)C3	-0.47	-5
COc1ccc(S(=O)(=O)N2CCN(c3cccc(Cl)c3)CC2)cc1OC	.	0.26
CCN(CCS(=O)(=O)N1CCNCC1)S(=O)(=O)c1cc(C)ccc1C	2.1	.
COC(=O)C1=C(C)NC2=C(C(=O)CC(C)(C)C2)C1c1ccccn1 (stereo not drawn)	-8.1	-0.3
CCCOc1ccc(C2N=C(N)Nc3nc4ccccc4n32)cc1 (stereo not drawn)	-0.25	-1.6

Structures from the list above containing two or more sulfur atoms (two):
SMILES	HIV TAR-Tat	CDC25B CDK2 inh
CCCCCOC(=O)CSc1nc(N)c2c3c(sc2n1)COC(C)(C)C3	-0.47	-5
CCN(CCS(=O)(=O)N1CCNCC1)S(=O)(=O)c1cc(C)ccc1C	2.1	.

Further structures follow.
SMILES	HIV TAR-Tat	CDC25B CDK2 inh
COCc1cc(=O)[nH]c(-c2csc(C)n2)n1	.	1.4
N=C1C(c2nc3ccccc3[nH]2)=C(O)CN1c1ccc(Nc2ccccc2)cc1	1.6	-1.6
COC(=O)c1ccc([N+](=O)[O-])c(Oc2ccc(Cl)cc2Cl)c1	.	-0.54
O=C1CCc2cc(S(=O)(=O)N3CCc4ccccc4C3)cc3c2N1CCC3	1.8	.
c1ccc2c(c1)OCC(c1nn3c(-c4ccncc4)nnc3s1)O2 (stereo not drawn)	1.8	-0.34
Cc1onc(-c2ccccc2)c1C(=O)NNc1c(Cl)cccc1Cl	.	-1.3
O=C(O)C1=Cc2sc3c(c2CS1)CCCC3	-0.36	.
C=CCN(C(=O)C1CCN(c2ncnc3c2nc2n3CCCCC2)CC1)c1ccccc1	0.26	.

(further entries)
SMILES	HIV TAR-Tat	CDC25B CDK2 inh
O=C(NCc1cccs1)C1CCN(c2ccc(-c3cccs3)nn2)CC1	0.51	.
COc1cc(OC)c(NC(=O)CSc2nncn3c2cc2occc23)cc1Cl	0.88	.
O=C(NCc1nnnn1-c1ccccc1)Nc1ccccc1Cl	0.05	.
Cc1cccc(-n2ccc(=O)c(C(=O)Nc3c(C(=O)c4ccccc4)oc4ccccc34)n2)c1	0.73	2.5
Cc1ccc(S(=O)(=O)Nc2cc(C(C)C)c(O)c(Cl)c2C)cc1	0.51	-2.7
Cc1ccc2c(=O)cc(C(=O)N(Cc3ccc(C(C)(C)C)cc3)C3CCS(=O)(=O)C3)oc2c1C (stereo not drawn)	0.66	-1.8
O=C(c1cc2c(s1)-c1ccccc1S(=O)(=O)C2)N1CCCc2ccccc21	0.55	-2.4
COc1ccc(C)cc1S(=O)(=O)N1CCN(c2cc(N(C)C)nc(C)n2)CC1	0.29	-1.2

The list goes on:
SMILES	HIV TAR-Tat	CDC25B CDK2 inh
CCCSCCCn1cnc2c([nH]c3cc(OC)ccc32)c1=O	4.8	-2
CC1=C(c2ccc(C)cc2)S(=O)(=O)N=C1Nc1cc(Cl)ccc1C	0.36	-2.2
Cc1nn(C(C)C(=O)NCCCN2CCCCC2C)c(=O)c2c1sc1ccccc12 (stereo not drawn)	2.3	-1.8
CC1=C(C(=O)N2CCC(C)CC2)C2(CCCCC2)OC1=O	-0.28	.
COC(=O)C1=C(C(=O)OC)SC(=C2C(=S)C(C)(C)N(C(=O)C(C)C)c3ccc(C)cc32)S1	-1.1	-1.1
CC(C)C(=O)Nc1nnc(SCc2cc(=O)c3ccccc3[nH]2)s1	2.5	.
Fc1ccc(-n2c(-c3cccnc3)n[nH]c2=S)cc1	.	-1.2
CCN(CC)c1ccc(NS(=O)(=O)c2ccc(F)cc2)cc1	.	-1.1

More records follow:
SMILES	HIV TAR-Tat	CDC25B CDK2 inh
CN(C)S(=O)(=O)N(CC(=O)Nc1ccc(F)c(F)c1)c1ccccc1	2.2	1.3
O=C1c2cccnc2C(=O)N1Cc1ccc(F)cc1S(=O)(=O)N1CCCCC1	-0.53	.
CC(=O)N1N=C(c2cc(C3CC3)nc3ccccc23)OC1c1ccc(Cl)cc1 (stereo not drawn)	2.8	.
O=S(=O)(c1ccc(-c2csnn2)cc1)N1CCOCC1	.	-1.9
Cc1nnc(NCc2cccnc2)c2c1nnn2Cc1ccccc1Cl	1.1	-1.7
CN(CC(=O)NC1CCCC1)S(=O)(=O)c1ccc(-c2ccc(=O)[nH]n2)s1	-1	.
Clc1cccc(-c2nnc(CN3CCN(c4ccccc4)CC3)o2)c1	1.1	-2.1
COCCNc1ncnc2c1nc1n2CCCCC1	0.82	.

The listing continues.
SMILES	HIV TAR-Tat	CDC25B CDK2 inh
O=C1CCCc2cc(S(=O)(=O)NCCN3CCCc4ccccc43)ccc2N1	0.31	.
Cn1cc(/C=C/c2nc3ccccc3c(=O)n2Cc2ccccc2)c2ccccc21	0.65	-1.6
CC(C)(C)c1nc(S(=O)(=O)c2ccccc2)c(N2CCOCC2)o1	0.75	-0.78
CCOC(=O)c1oc2ccc(S(=O)(=O)Nc3ccc4c(c3)n(C)c(=O)n4C)cc2c1C	0.61	0.41
O=C(CCSc1ccccn1)c1ccc(Cl)cc1	.	-2.2
CCOc1ccc(CNS(=O)(=O)c2cc(-c3onc(C)c3C)ccc2OC)cc1OC	0.18	.
O=C(CC1(O)C(=O)N(Cc2ccc(Cl)cc2)c2ccccc21)c1ccc2c(c1)OCCO2 (stereo not drawn)	-0.58	0.37
CN1CCN(CCNC(=O)c2cnn(-c3ccc(F)cc3)c2-n2cccc2)CC1	0.45	.

Further entries:
SMILES	HIV TAR-Tat	CDC25B CDK2 inh
CCOc1ccc(Br)cc1C1C(C(=O)OC(C)C)=C(C)Nc2nnnn21 (stereo not drawn)	0.32	0.25
CCOc1ccc(S(=O)(=O)N2CCc3ccccc3C2)cc1	.	-2.5
CC(C)C1Oc2ccc(Cl)cc2C2CC(c3ccccc3O)=NN21 (stereo not drawn)	0.25	-0.28
CN(Cc1nc(-c2ccc(Cl)cc2)no1)S(=O)(=O)c1ccc(F)cc1	1.8	0.26
FC(F)(F)c1cccc(-n2cc(-c3ccccc3)c3c(NCCCn4ccnc4)ncnc32)c1	.	-1.6
CCn1c(SCC(=O)N2CCN(c3ccccc3)CC2)nc2c(c1=O)SCC2	0.91	-1.6
O=C(NCc1csc2ccccc12)c1ccccc1	.	-1.3
CC1(C)CC(=O)C2=C(C1)Nc1nc(SCc3ccccc3)[nH]c(=O)c1C2c1cccs1 (stereo not drawn)	.	-0.29

(cont.)
SMILES	HIV TAR-Tat	CDC25B CDK2 inh
COc1cccc(NC(=O)Nc2nc(-c3nc4ccccc4[nH]3)cs2)c1	5.1	-1.6
CCOc1ccc(S(=O)(=O)Nc2c(C)n(C)n(-c3ccccc3)c2=O)cc1	1.8	-1.5
Cc1cc(O)cc2occ(-c3cnn(-c4ccccc4)c3)c(=O)c12	3.7	-1.9
O=C1CSc2ccc(S(=O)(=O)N3CCC(C(=O)N4CCN(C5CCCC5)CC4)CC3)cc2N1	3.4	.
O=C(NC1CCCC1)C1CCC(CNc2c(N3CCOCC3)c(=O)c2=O)CC1 (stereo not drawn)	2.3	-1.3
Cc1ccc(S(=O)(=O)NCc2cccn2Cc2ccccc2C)c(C)c1	2.2	.
Cc1cc(C)c(NS(=O)(=O)c2ccc3c(c2)NC(=O)C(C)S3)c(C)c1 (stereo not drawn)	0.85	.
COc1ccc(N2CCN(S(=O)(=O)c3ccc4oc(=O)c5ncn(C)c5c4c3)CC2)cc1	0.17	.

Later entries
SMILES	HIV TAR-Tat	CDC25B CDK2 inh
CC(C)c1ccc(-n2ccnc(NCc3ccc4c(c3)OCO4)c2=O)cc1	-0.23	.
Cc1ccc(OC(C)c2nc3ccccc3[nH]2)cc1 (stereo not drawn)	1.3	-0.79
COc1ccc(-c2coc3cc(OS(=O)(=O)c4ccccc4)ccc3c2=O)cc1	.	-2.6
Cn1c2ccccc2c2c(C(=O)Nc3nc4ccccc4s3)cn(C3CCCC3)c(=O)c21	.	-1.7
O=C(CSc1n[nH]c(-c2ccccc2)n1)c1ccc(Br)cc1	-0.19	-1.8
O=C(CCN1CCOCC1)N1CCCc2c1c(=O)oc1ccc(O)cc21	.	-0.21
C(=C\c1nn2c(Cn3cnc4ccccc43)nnc2s1)/c1ccccc1	1.3	-0.03
Cc1nc(NC2=NCN(C3CCCCC3C)CN2)nc2ccccc12 (stereo not drawn)	.	1.7

Following part:
SMILES	HIV TAR-Tat	CDC25B CDK2 inh
CC(C)(C)S(=O)(=O)c1ccc(C(=O)O)s1	1.4	-2.3
CCCc1cc(=O)oc2cc(OC(C)C(=O)NN)ccc12 (stereo not drawn)	.	-0.46
O=c1ccc(-c2ccc(S(=O)(=O)NCC3CCN(Cc4ccc(F)cc4)CC3)s2)n[nH]1	-3.2	.
CCOc1ccc(N2CCCCn3c2nc2c3c(=O)n(CC(C)C)c(=O)n2C)cc1	-0.52	-1.8
O=c1[nH]cnc2scc(-c3cccs3)c12	.	-1.3
O=C(Nc1ccc(F)cc1)c1nnc(SCC(=O)N2CCC(N3CCCCC3)CC2)s1	-0.79	.
CC1CC2(CCCC2)Nc2ccc(F)cc21 (stereo not drawn)	.	-1.5
COc1ccc2cc(C3=NN(C(C)=O)C(c4c(OC(C)=O)ccc5ccccc45)O3)ccc2c1 (stereo not drawn)	1.5	.
O=C(O)CSc1ccc2c3c(cccc13)C(=O)c1ccccc1-2	-4.1	0.36

Profiles from above. Values in the order: HIV TAR-Tat | CDC25B CDK2 inh
CC(C)(C)S(=O)(=O)c1ccc(C(=O)O)s1 as listed: 1.4 | -2.3
O=c1[nH]cnc2scc(-c3cccs3)c12 as listed: . | -1.3
O=c1ccc(-c2ccc(S(=O)(=O)NCC3CCN(Cc4ccc(F)cc4)CC3)s2)n[nH]1 as listed: -3.2 | .
O=C(Nc1ccc(F)cc1)c1nnc(SCC(=O)N2CCC(N3CCCCC3)CC2)s1 as listed: -0.79 | .
CCCc1cc(=O)oc2cc(OC(C)C(=O)NN)ccc12 (stereo not drawn) as listed: . | -0.46

From PubChem BioAssay
